Screening data: PubChem, National Center for Advancing Translational Sciences (NCATS)
Resorufin autofl – qHTS Assay for Spectroscopic Profiling in Resorufin Spectral Region; Compound fluorescence, resorufin region 547/598 nm, buffer; stronger effect = higher value; max dye-equivalent concentration, M; 59,000 compounds, 0.04% hits; AID 588, 2007; active = above 10 nM dye equivalent; inconclusive = 1 to 10 nM; inactive = 1 nM or less; a few of its hits are not listed in these tables; further: highest value over a series up to 38 µM
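Compounds in 100 mM Tris, pH 8.0, incubated 15 min at room temperature, then fluorescence read at 547 nm excitation/598 nm emission. Signal converted to dye-equivalent concentration via an on-plate six-point resorufin standard curve, per compound concentration.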
TSHR ag – qHTS Assay for Agonists of the Thyroid Stimulating Hormone Receptor; Potency, µM (titrated, usually from 57.1 µM), inactives show at the top dose activation, hits mostly activators; HEK293-CNG-TSHR cells (CNG channel as cAMP sensor), membrane potential dye, cAMP; Thyrotropin receptor (Homo sapiens), P16473; AID 926, 2007; 73,000 compounds, 0.48% hits; active = well fitted activation curve of enough size with the parental cells flat; inconclusive = any curve in the parental cells; inactive = parental cells flat and receptor cells flat or falling; further: potency means the concentration at half of the fitted maximal effect; % of control where 0% means no effect; weak receptor curves with flat parental cells got no call and are not listed
Target sequence (P16473 whole entry, looked up): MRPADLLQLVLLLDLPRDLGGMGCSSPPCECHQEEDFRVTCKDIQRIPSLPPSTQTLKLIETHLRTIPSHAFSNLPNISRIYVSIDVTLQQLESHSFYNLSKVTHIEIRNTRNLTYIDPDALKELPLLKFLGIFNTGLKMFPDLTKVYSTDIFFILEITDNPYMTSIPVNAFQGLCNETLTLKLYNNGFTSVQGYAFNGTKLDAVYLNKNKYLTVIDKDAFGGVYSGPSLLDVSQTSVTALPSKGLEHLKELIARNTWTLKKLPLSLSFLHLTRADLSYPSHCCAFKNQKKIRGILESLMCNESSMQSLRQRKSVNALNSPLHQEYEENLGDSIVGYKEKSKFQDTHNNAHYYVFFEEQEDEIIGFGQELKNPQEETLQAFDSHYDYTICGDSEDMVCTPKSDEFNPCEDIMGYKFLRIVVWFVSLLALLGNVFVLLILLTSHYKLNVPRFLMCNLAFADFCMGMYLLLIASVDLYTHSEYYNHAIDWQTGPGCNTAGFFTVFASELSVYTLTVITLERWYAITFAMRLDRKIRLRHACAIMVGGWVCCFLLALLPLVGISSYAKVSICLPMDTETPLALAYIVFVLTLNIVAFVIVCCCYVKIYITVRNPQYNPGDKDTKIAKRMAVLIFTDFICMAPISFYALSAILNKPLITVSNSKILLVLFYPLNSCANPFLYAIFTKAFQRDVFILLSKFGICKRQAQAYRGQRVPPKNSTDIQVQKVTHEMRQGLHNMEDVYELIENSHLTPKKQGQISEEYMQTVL
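HEK 293 cells stably expressing TSHR and a modified CNG channel, with CNG-only parental cells as counterscreen, were preloaded 60 min at room temperature with membrane potential dye containing 100 uM RO 20-1724. Compound exposure was 30 min, and depolarization was read as fluorescence at 590 nm.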
AID923 – qHTS Assay for Allosteric/Competitive Inhibitors of Caspase-1: Spectroscopic Profiling in AFC Spectral Region; 75,000 compounds, 1.1% hits; Potency, µM (highest dose often 57.5 µM), without a hit: top-dose fluorescence increase, usual class: activators; compound fluorescence, AFC spectral region (405/520 nm); almost no hit is shown here; AID 923, 2007; active means well fitted activation curve with a large enough effect; inconclusive means small, poorly fitted or top-dose-only effect;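 further: potency means the concentration at half of the fitted maximal effect; 0% is about no effect; scaled to a free AFC standard on each plate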
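Baseline compound fluorescence (AFC region, 405 nm ex/520 nm em) taken from the intercept of kinetic reads with 50 nM caspase-1 and 5 uM Ac-WEHD-AFC; normalized to an on-plate AFC standard curve; compounds titrated up to 57 uM.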
A647 fluor – qHTS Assay for Spectroscopic Profiling in A647 Spectral Region; max dye-equivalent concentration, M; AID 592, 2007; Compound fluorescence, A647 channel (570/671 nm), Tris buffer; 59,000 tested, under 10 active; active means above 1 µM dye equivalent; inconclusive means 0.1 to 1 µM; inactive means 0.1 µM or less;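 further: values scaled relative to a standard on each plate; highest value over a series up to 38 µM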
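Compound fluorescence was measured in 100 mM Tris buffer, pH 8.0, after 15 min at room temperature, using 570 nm excitation and 671 nm emission filters. Signal was normalized to a per-plate Alexa 647 standard curve and expressed as dye-equivalent concentration at each compound concentration.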
A488 autofl – qHTS Assay for Spectroscopic Profiling in A488 Spectral Region. max dye equivalency, M. 59,000 compounds, 0.1% hits. compound autofluorescence, A488 spectral region, dye equivalency; stronger effect = higher value. AID 591, 2007; active = above 10 nM dye equivalent; inconclusive = 1 to 10 nM; inactive = 1 nM or less; about half of its hits are not listed in these tables;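 further: highest value over a series up to 38 µM; compound alone in buffer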
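Intrinsic compound fluorescence is measured in 100 mM Tris buffer at pH 8.0 following 15 min incubation at room temperature. Intensities at 480 nm excitation/540 nm emission are calibrated to an on-plate A488 concentration series, giving dye-equivalent concentrations.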
* marks the source's active call; other numbers are inactive results; [ ] = remark or other dose.

How did COc1ccc2[nH]cc(CCNc3nc(-c4cccnc4)nc4ccccc34)c2c1 do in these assays?
Resorufin autofl: inactive; TSHR ag: 4µM*; AID923: 6.8%; A647 fluor: 1e-09; A488 autofl: inactive

What do the screens show for `COc1ccc(N2CCN(C(=O)C(CCSC)N=C3NS(=O)(=O)c4ccccc43)CC2)cc1` (configuration not stated)?
Resorufin autofl: inactive; TSHR ag: 1%; AID923: -1.3%; A647 fluor: 3.6e-08; A488 autofl: inactive

What do the screens show for `COc1ccccc1CN1C(=O)[C@@H]2C(CC(N)=O)NC3(C(=O)Nc4c3ccc(Cl)c4C)[C@@H]2C1=O` (some centres not stated)?
Resorufin autofl: inactive; TSHR ag: 1%; AID923: -4.0%; A647 fluor: 1.8e-08; A488 autofl: inactive

How did O=C(CCN1CCN(CCO)CC1)Nc1ccc(OCc2ccccc2)cc1 do in these assays?
Resorufin autofl: inactive; TSHR ag: 1%; AID923: 0.9%; A647 fluor: 7e-09; A488 autofl: inactive

How did COc1ccc2c(c1)CCc1c(C(=O)N3CCOCC3)noc1-2 do in these assays?
Resorufin autofl: inactive; TSHR ag: 2%; AID923: -0.8%; A647 fluor: 3e-08; A488 autofl: inactive

What do the screens show for `CCc1ccccc1N(C(=O)c1cccs1)C1C=CS(=O)(=O)C1` (configuration not stated)?
Resorufin autofl: inactive; TSHR ag: 7%[11.4 µM]; AID923: 1.1%; A647 fluor: 1e-09; A488 autofl: inactive

How did CN(Cc1ccccc1)c1nc2c(c(=O)[nH]c(=O)n2C)n1C do in these assays?
Resorufin autofl: inactive; TSHR ag: -3%; AID923: -0.1%; A647 fluor: 1.2e-09; A488 autofl: inactive

How did O=C(CCc1ccc(O)cc1)c1c(O)cc(O)cc1O[C@@H]1O[C@@H](CO)[C@@H](O)[C@@H](O)[C@H]1O do in these assays?
Resorufin autofl: inactive; TSHR ag: -3%; A647 fluor: 4.3e-09; A488 autofl: inactive

Results for CN=C1SC(C(=O)O)CC(=O)N1C (configuration not stated) ?
Resorufin autofl: inactive; TSHR ag: 1%; AID923: -0.5%; A647 fluor: 4.2e-08; A488 autofl: inactive

How did Cc1noc(C)c1COc1ccc(C(=O)OCC(=O)NC(=O)C2COc3ccccc3O2)cc1 (configuration not stated) do in these assays?
Resorufin autofl: inactive; TSHR ag: 1%; AID923: -0.7%; A647 fluor: 1.2e-08; A488 autofl: inactive

What do the screens show for `Cc1ccc(-c2nc(CSCC(=O)N3CCOCC3)c(C)o2)cc1`?
Resorufin autofl: inactive; TSHR ag: -5%[11.4 µM]; AID923: 0.0%; A647 fluor: 1.7e-08; A488 autofl: inactive

What do the screens show for `O=C(c1ccncc1)c1ccc(Br)cc1`?
Resorufin autofl: inactive; TSHR ag: 4%; AID923: -0.1%; A647 fluor: 3.1e-09; A488 autofl: inactive

What do the screens show for `O=C1c2ccccc2C(Nc2ccc3c(c2)OCO3)N1Cc1ccco1` (configuration not stated)?
TSHR ag: 11%; AID923: 2.1%

What do the screens show for `CCc1ccc2[nH]c(=O)c(CN(CCN(C)C)C(=O)Nc3ccccc3)cc2c1`?
Resorufin autofl: inactive; TSHR ag: inconclusive; AID923: 0.8%; A647 fluor: 1e-09; A488 autofl: inactive

Results for CCC1(CC)Cc2ccccc2-c2nc(CN3CCOCC3)[nH]c(=O)c21 ?
Resorufin autofl: inactive; TSHR ag: -2%; AID923: -1.9%; A647 fluor: 4.1e-08; A488 autofl: inactive

What do the screens show for `CS(=O)(=O)N1CCC(NC(=O)Cc2ccccc2)CC1`?
Resorufin autofl: inactive; TSHR ag: 4%; AID923: 1.2%; A647 fluor: 3e-08; A488 autofl: inactive

How did C/C(N)=C(/C#N)C(=O)COC(=O)c1cc(C)n(-c2ccc(F)cc2)c1C do in these assays?
Resorufin autofl: inactive; TSHR ag: 4%; AID923: 0.8%; A647 fluor: 1.5e-08; A488 autofl: inactive

How did Cc1cccc(CSc2nnc(-c3ccccn3)n2N)c1 do in these assays?
Resorufin autofl: inactive; TSHR ag: 12%; AID923: 2.9%; A647 fluor: 1e-09; A488 autofl: inactive

Results for CC(C)=NOCc1cccc(-c2cc(-c3ccccc3)no2)c1 ?
TSHR ag: inconclusive; AID923: -1.9%[11.5 µM]

How did O=c1cc(-c2cccc(O)c2)oc2c(O)c(O)ccc12 do in these assays?
Resorufin autofl: inactive; TSHR ag: -14%; AID923: -1.6%; A647 fluor: 3e-09; A488 autofl: inactive

How did C1CCN=C(Nc2nc3c(s2)CCCC3)CC1 do in these assays?
Resorufin autofl: inactive; TSHR ag: 4%[11.4 µM]; AID923: -0.8%; A647 fluor: 1e-09; A488 autofl: inactive

How did O=S(=O)(c1ccccc1)N1CCC2(CC1)CN(c1ccccn1)C2 do in these assays?
Resorufin autofl: inactive; TSHR ag: 4%; AID923: -5.9%; A647 fluor: 1e-09; A488 autofl: inactive

Results for CC(C)(C)OC(=O)N1CCC[C@H]1c1nnc(SCc2ccc(Cl)cc2Cl)o1 ?
Resorufin autofl: inactive; TSHR ag: inconclusive; AID923: -0.3%; A647 fluor: 2.2e-09; A488 autofl: inactive

What do the screens show for `Cn1c(=O)c2c(ncn2CC(=O)N(Cc2ccccc2)c2ccccn2)n(C)c1=O`?
Resorufin autofl: inactive; TSHR ag: -1%[11.4 µM]; AID923: -0.3%; A647 fluor: 1.8e-08; A488 autofl: inactive

How did C=CCOn1c(=O)c(C)[n+]([O-])c2ccccc21 do in these assays?
TSHR ag: -3%[11.4 µM]; AID923: 1.5%

What do the screens show for `C=CCn1c(SCn2nnc3ccccc3c2=O)nc2scc(-c3cccs3)c2c1=O`?
Resorufin autofl: inactive; TSHR ag: 3%; AID923: 0.7%; A647 fluor: 3.8e-08; A488 autofl: inactive

How did CC(C)(C)OC(=O)N1CCC[C@H]1c1nnc(SCc2ccccc2F)o1 do in these assays?
Resorufin autofl: inactive; TSHR ag: 25%; AID923: 2.0%; A647 fluor: 1.2e-09; A488 autofl: inactive

Results for C/C(CCN1CCCCc2nc(C)c(C)cc21)=N\O[C@@H](C)c1cc(-c2c(C)cc(C)cc2C)no1 ?
TSHR ag: 23%[11.4 µM]; AID923: -1.6%[11.5 µM]

Results for c1ccc(CCNC2=NCCCS2)cc1 ?
Resorufin autofl: inactive; TSHR ag: 0%; AID923: -0.9%; A647 fluor: 6.9e-09; A488 autofl: inactive

How did CC(=O)CCc1c(C)[nH]c2ccccc2c1=O do in these assays?
TSHR ag: -8%; AID923: -1.6%

How did COc1ccc(N2CCN(Cc3nc4c(c(=O)[nH]c(=O)n4C)n3CCCc3ccccc3)CC2)cc1 do in these assays?
Resorufin autofl: inactive; TSHR ag: 28%; AID923: -0.6%; A647 fluor: 1e-09; A488 autofl: inactive

How did CCS(=O)(=O)N1CCC(C(=O)NCCCN2CCCC2)CC1 do in these assays?
Resorufin autofl: inactive; TSHR ag: 1%; AID923: -0.3%; A647 fluor: 8.4e-09; A488 autofl: inactive

Results for O=c1c2ccccc2cnn1-c1nc2ccccc2s1 ?
Resorufin autofl: inactive; TSHR ag: -11%; AID923: 2.9%; A647 fluor: 2.2e-08; A488 autofl: inactive

How did CC1=CC(C)(C)N2C(=O)C3(C(C#N)=C(N)Oc4cc(C)oc(=O)c43)c3cccc1c32 (configuration not stated) do in these assays?
Resorufin autofl: inactive; TSHR ag: -5%; AID923: -2.0%; A647 fluor: 3.1e-08; A488 autofl: inactive

How did Cc1cccc(N2CCN(C(=O)c3cc4c(C)nc5ccccc5c4o3)CC2)c1C do in these assays?
TSHR ag: inconclusive; AID923: 1.1%

How did c1ccc(CCn2nnnc2C(c2cccnc2)N2CCN(c3ccccc3)CC2)cc1 (configuration not stated) do in these assays?
Resorufin autofl: inactive; TSHR ag: 22%; AID923: 1.4%; A647 fluor: 6e-08; A488 autofl: inactive

4 entries picked at random from the list so far, as already listed:
How did Cc1cccc(N2CCN(C(=O)c3cc4c(C)nc5ccccc5c4o3)CC2)c1C do in these assays?
TSHR ag: inconclusive; AID923: 1.1%

How did CC(C)(C)OC(=O)N1CCC[C@H]1c1nnc(SCc2ccccc2F)o1 do in these assays?
Resorufin autofl: inactive; TSHR ag: 25%; AID923: 2.0%; A647 fluor: 1.2e-09; A488 autofl: inactive

How did CCS(=O)(=O)N1CCC(C(=O)NCCCN2CCCC2)CC1 do in these assays?
Resorufin autofl: inactive; TSHR ag: 1%; AID923: -0.3%; A647 fluor: 8.4e-09; A488 autofl: inactive

How did C=CCOn1c(=O)c(C)[n+]([O-])c2ccccc21 do in these assays?
TSHR ag: -3%[11.4 µM]; AID923: 1.5%

Additional entries
Results for O=C(Oc1ccccc1)N1CCC2(CC1)CN(c1ccccn1)C2 ?
Resorufin autofl: inactive; TSHR ag: inconclusive; AID923: 0.3%; A647 fluor: 1.5e-09; A488 autofl: inactive

Results for O=C(O)c1ccccc1C(=O)OCCCCOC(=O)c1ccccc1C(=O)O ?
TSHR ag: 30%[11.4 µM]; AID923: 0.6%

How did COc1ccc(CN2C(=O)c3ccccc3C2C(=O)NC2CCCC2)c(OC)c1 (configuration not stated) do in these assays?
Resorufin autofl: inactive; TSHR ag: 19%; AID923: -1.3%; A647 fluor: 3.3e-09; A488 autofl: inactive

Results for O=C(O)CCC(=O)Nc1ccc2ccccc2c1 ?
Resorufin autofl: inactive; TSHR ag: 0%[11.4 µM]; AID923: -3.1%[11.5 µM]; A647 fluor: 1e-09; A488 autofl: inactive

What do the screens show for `CCc1ccc(OCc2nc(-c3ccccn3)no2)c(Br)c1`?
Resorufin autofl: inactive; TSHR ag: 23%; AID923: 0.8%; A647 fluor: 3.2e-08; A488 autofl: inactive

What do the screens show for `CN(C)Cc1nc2ccccc2c(=O)n1Cc1nc(-c2cc3ccccc3o2)cs1`?
Resorufin autofl: inactive; TSHR ag: 20%; AID923: 0.3%; A647 fluor: 1e-09; A488 autofl: inactive

How did O=C(CSc1ccccn1)c1ccc(F)cc1 do in these assays?
TSHR ag: 7%; AID923: -1.4%

How did CC1=CC(C)(C)N(C(=O)c2ccccc2)c2ccccc21 do in these assays?
TSHR ag: inconclusive; AID923: 0.8%

Results for O=C(c1cc2ccccc2oc1=O)N(Cc1cccs1)C1CCS(=O)(=O)C1 (configuration not stated) ?
Resorufin autofl: inactive; TSHR ag: 2%; AID923: -0.8%; A647 fluor: 5.7e-09; A488 autofl: inactive

How did Cc1ccc2c(c1)[nH]c1c(=O)n(Cc3ccccn3)cnc12 do in these assays?
Resorufin autofl: inactive; TSHR ag: -1%; AID923: 0.9%; A647 fluor: 9.6e-09; A488 autofl: inactive

What do the screens show for `O=C(Cc1cc(=O)[nH]c(=O)[nH]1)NCCN1CCOCC1`?
TSHR ag: 22%; AID923: 0.3%

Results for COc1ccc(C(=O)Nc2nc(N)n(-c3ccccc3)n2)cc1OC ?
Resorufin autofl: inactive; A647 fluor: 1.2e-09; A488 autofl: inactive

Results for CCCOC1(NC(=O)c2ccccc2)C(C)=CC(=O)C=C1C ?
Resorufin autofl: inactive; TSHR ag: 10%; AID923: -1.3%; A647 fluor: 1e-09; A488 autofl: inactive

How did CCOc1cc2[nH]c(=S)n(CCCCC(=O)NCc3ccco3)c(=O)c2cc1OCC do in these assays?
Resorufin autofl: inactive; TSHR ag: -20%; AID923: -0.9%; A647 fluor: 2.2e-08; A488 autofl: inactive

How did O=C(c1cc(-c2ccco2)on1)N1CCCc2ccccc21 do in these assays?
Resorufin autofl: inactive; TSHR ag: 16%; AID923: -3.2%; A647 fluor: 5.3e-09; A488 autofl: inactive

This is a subset, so the mix of outcomes need not match the whole.
